# High-throughput results from PubChem.
# TrxR1 substrate – is turned over as a substrate by rat TrxR1; O89049; purified TrxR1 substrate turnover, NADPH consumption readout; Potency, µM (series often up to 114 µM), for the others: at the highest dose activity change, negative = substrate turnover; 390,000 tested, 0.01% active; further: potency means the concentration at half of the fitted maximal effect; on the % scale 0 is the no-effect control and ±100 the full control effect; nearly all actives have a fitted effect of over 50% in size
# Target sequence (O89049 whole entry, looked up): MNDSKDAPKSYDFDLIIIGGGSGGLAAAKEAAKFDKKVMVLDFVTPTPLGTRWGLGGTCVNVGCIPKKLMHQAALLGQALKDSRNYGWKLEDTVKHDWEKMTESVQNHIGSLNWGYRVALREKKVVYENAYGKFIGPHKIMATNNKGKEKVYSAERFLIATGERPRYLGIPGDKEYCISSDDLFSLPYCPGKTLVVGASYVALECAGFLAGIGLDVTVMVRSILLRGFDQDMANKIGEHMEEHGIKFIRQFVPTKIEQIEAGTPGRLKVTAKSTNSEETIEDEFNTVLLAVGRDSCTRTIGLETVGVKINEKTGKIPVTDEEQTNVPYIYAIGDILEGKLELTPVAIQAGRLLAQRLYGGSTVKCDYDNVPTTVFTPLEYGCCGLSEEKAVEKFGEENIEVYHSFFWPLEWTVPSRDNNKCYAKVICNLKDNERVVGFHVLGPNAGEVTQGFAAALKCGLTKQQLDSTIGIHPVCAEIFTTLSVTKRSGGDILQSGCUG
#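 Rat TrxR1, dispensed at 90 nM, was prereduced with 400 uM NADPH (final) for 5 min at ~22 deg C, then incubated with compound 15 min before 400 uM selenite. A first-read NADPH fluorescence drop versus no-compound background flagged substrates.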
# IDH1 R132H inh – blocks human mutant IDH1 R132H enzyme. O75874. IDH1-R132H enzyme, NADPH consumption, diaphorase/resazurin fluorescence. Potency, µM (top dose mostly 76.6 µM), inactives show top-dose activity change, negative = inhibition, most hits filed as inhibitors. 390,000 tested, 0.093% active; further: potency means the concentration at half of the fitted maximal effect; on the % scale 0 is the no-effect control and ±100 the full control effect; nearly all actives have a fitted effect of over 65% in size
#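 IDH1-R132H (0.5 ug/mL dispensed) in pH 7.5 Tris buffer was preincubated 30 min with compound, then given a substrate mix of 0.016 mM NADPH and 2 mM alpha-KG for 80 min at room temperature; remaining NADPH was read by diaphorase/resazurin fluorescence.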
# Vif-APOBEC3F blk – inhibitors of Vif-A3F interaction. HeLa A3F-eYFP + Vif (tagged APOBEC3F with the HIV-1 protein that degrades it), YFP fluorescence increase. Potency, µM (doses to about 46.1 µM), for inactives: at the highest dose activity, negative = active. 390,000 tested, 0.2% active. AID 602313; further: potency means the concentration at half of the fitted maximal effect; % of control where 0% means no effect; nearly all actives have a fitted effect of over 65% in size
#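 HeLa cells stably expressing Vif plus C-terminally eYFP-tagged A3F were seeded, incubated overnight at 37 deg C, dosed with compound, incubated overnight again at 37 deg C. Yellow fluorescence (Ex 488/Em 500-530) reported blocked Vif-mediated A3F-eYFP degradation.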
# Glioma ERSR ind – induces the endoplasmic reticulum stress response in human glioma cells. U87-MG GRP78 promoter luciferase reporter, 16 h. Potency, µM, inactives show at the highest dose activation, usual class: activators. 420,000 tested, 0.02% active. AID 602332; further: potency means the concentration at half of the fitted maximal effect; series mostly up to about 76 µM; % of control where 0% means no effect; nearly all actives have a fitted effect of over 35% in size
#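 Stably transfected U87-MG human glioma cells carrying a GRP78-based luminescent sensor were seeded at 1000 cells/well, pin-dosed with compounds and incubated 16 h. Luciferase reagent was then added, and end-point luminescence was read after 10 min at room temperature.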
# LDHA block – LDHA (human) enzyme inhibition; P00338; purified LDHA, NADH/diaphorase-resazurin fluorescence; hits give low values; activity change, % (values are at about 110 or 230 µM); 480,000 tested, 0.15% active; AID 1347041; in the data active means activity change below about -30%; inconclusive means mostly about -25% to -30%;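 further: plate controls were DMSO wells for no effect and wells without enzyme for full effect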
#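 LDH5 2 nM; NADH 0.06 mM, pyruvate 0.2 mM; 200 mM Tris pH 7.4, EDTA, Tween-20; 5 min RT. Detection: diaphorase 0.133 mg/mL + resazurin 37 µM, fluorescence ex540/em590 at 0 and 20 min; normalized to enzyme-free and DMSO wells.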
# Vif-APOBEC3G blk – blocks the Vif interaction with human APOBEC3G. Q9HC16. 410,000 tested, 0.076% active. Potency, µM (titrated, usually from 46.1 µM), for inactives: at the top dose activity, negative = active, actives largely listed as inhibitors. HeLa A3G-eYFP + Vif (tagged APOBEC3G with the HIV-1 protein that degrades it), YFP fluorescence, overnight. AID 602310;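 further: potency means the concentration at half of the fitted maximal effect; on the % scale 0 is the no-effect control and ±100 the full control effect; nearly all actives have a fitted effect of over 60% in size; hits raise eYFP signal because A3G escapes Vif-driven loss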
# Target sequence (Q9HC16 whole entry, looked up): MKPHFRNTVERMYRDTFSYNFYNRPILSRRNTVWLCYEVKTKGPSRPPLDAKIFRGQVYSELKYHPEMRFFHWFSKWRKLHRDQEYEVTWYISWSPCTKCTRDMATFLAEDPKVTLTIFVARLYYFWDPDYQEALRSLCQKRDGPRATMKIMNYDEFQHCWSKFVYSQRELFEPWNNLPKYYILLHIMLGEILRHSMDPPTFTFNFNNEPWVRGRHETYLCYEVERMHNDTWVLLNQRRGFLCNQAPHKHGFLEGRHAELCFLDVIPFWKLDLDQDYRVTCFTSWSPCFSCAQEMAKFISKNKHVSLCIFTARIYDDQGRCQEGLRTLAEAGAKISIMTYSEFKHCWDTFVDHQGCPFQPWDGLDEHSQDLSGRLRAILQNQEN
#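 HeLa cells stably expressing Vif and C-terminally eYFP-tagged A3G, seeded overnight at 37 deg C, then exposed to compound by pintool overnight at 37 deg C. Rise in yellow fluorescence (Ex 488/Em 500-530, Acumen) marks blocked Vif-driven A3G degradation.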
# USP1 inh – inhibitors of human USP1/UAF1 deubiquitinase | O94782 | 390,000 tested, 0.23% active | AID 743255 | recombinant USP1/UAF1, Ub-Rhodamine cleavage fluorescence | Potency, µM (top dose mostly 57.1 µM), for the others: at the highest dose activity change, negative = inhibition, hits mostly inhibitors; further: potency means the concentration at half of the fitted maximal effect; on the % scale 0 is the no-effect control and ±100 the full control effect; nearly all actives have a fitted effect of over 60% in size; inactives centre near -12
#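 Step one: compound is pinned into 1nM USP1/UAF1 in HEPES pH 7.8 buffer with TCEP. Step two: 15 min room-temperature incubation. Step three: Ub-Rho (150nM final) starts cleavage, tracked by fluorescence over six one-minute reads.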
# PI4K2A inh – blocks human PI4K2A kinase activity; activity change, negative = inhibition, % at 76.9 µM; Q9BTU6; 420,000 tested, 0.13% active; purified PI4K2A, ADP-Glo luminescence, 1 h; hits give low values; in the data active means activity change below about -50%; inconclusive means mostly about -30% to -49%;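 further: -100% = wells without enzyme as full effect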
#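 In this quantitative HTS, ADP production by PI4K2A was quantified luminescently after 1 h at ambient temperature; 100 microM adenosine served as plate-quality control.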
# The depositor's hits bear a star; u = inconclusive; x = no result given; & = joins results of further samples; [ ] = another dose, or the depositor's remark. Unless noted, the call rests on the fitted dose curve; in most records, active means well fitted curve in the direction sought with a large enough effect; inconclusive means small, poorly fitted or top-dose-only effect, or another doubt; inactive means no such curve, though single readings can be large; an effect the other way counts as inactive or inconclusive.
SMILES,TrxR1 substrate,IDH1 R132H inh,Vif-APOBEC3F blk,Glioma ERSR ind,LDHA block,Vif-APOBEC3G blk,USP1 inh,PI4K2A inh
CC(C)NC(=O)C1CCN(C2CCN(CC3CC=CCC3)CC2)CC1 (stereo unspecified),4.6%,3.8%,-10.8%,-4.9%,0.1,-5.0%,-11.1%,3.4
O=C(Cc1ccccc1[N+](=O)[O-])Nc1cccc(S(=O)(=O)NC2=NCCCCC2)c1,-9.0%,-1.5%,1.6%,1.2%,0.0,1.3%,4.8%,2.2
Cc1ccc(S(=O)(=O)Nc2cnn(-c3ccccc3)c(=O)c2Cl)cc1,1.6%,-3.8%,-20.6%,-4.4%,-5.9,-0.6%,-22.4%,3.2
CCOC(=O)c1c(NC(=O)CSc2ncnc3[nH]ncc23)sc2c1CCC(C)C2 (stereo unspecified),1.3%,0.0%,-22.4%,-0.8%,3.8,-10.5%,-12.3%,-0.2
Cc1nc2cc(F)ccc2n1C1CCN(C(=O)c2c(F)cccc2F)CC1,6.5%[57.1 µM],10.7%,0.2%,-1.7%,-0.7,-1.9%,-20.7%,4.4
CN(C)c1nc(Nn2cnnc2)nc(N(C)C)n1,7.8%,6.9%,7.3%,-4.4%,-10.3,1.1%,-13.6%,-11.3
Cc1cccc(C)c1NC(=O)COc1ccccc1C(=O)Nc1ccc(Br)cn1,9.3%[57.1 µM],-2.8%,-1.7%,3.1%,-5.3,-2.1%,-4.4%,-0.6
CCOc1cccc(C2/C(=C(\O)c3ccc4c(c3)OCCO4)C(=O)C(=O)N2Cc2ccncc2)c1 (stereo unspecified),-6.0%,0.0%,0.3%,-0.3%,0.2,-5.0%,-28.8%,-6.1
CC1(OC(=O)CCc2ccccc2)C(=O)C=C2C=C3CCCN3C=C2C1=O (stereo unspecified),0.4%[57.1 µM],-5.9%,1.4%,-2.8%,-1.7,5.6%,u,-18.4
CCOC(=O)c1c(NC(=O)C(C)NCc2ccco2)sc2c1CCC(C)C2 (stereo unspecified),2.5%[57.1 µM],1.3%,6.5%,-7.4%,-9.1,1.0%,-11.7%,-11.0
CCN(CC)S(=O)(=O)c1ccc2c(c1)nc(CCC(=O)OCc1c(C)noc1C)n2C,9.3%[57.1 µM],-9.5%,-9.3%,-0.5%,-8.2,2.5%,1.7%,1.0
COc1ccc(-c2ccc3c(N)c(C(=O)Nc4ccc(C(F)(F)F)cc4)sc3n2)cc1OC,-3.8%,-2.4%,-1.7%,-1.8%,0.4,-29.1%,-2.3%,-5.1
Cc1nn(C(C)C(=O)O)c(=O)c2c1sc1ccccc12 (stereo unspecified),3.8%,-0.4%,-4.9%,-4.2%,-11.4,0.1%,-5.5%,-9.1
O=C(C1=C(O)C(=O)N(CCN2CCOCC2)C1c1ccc(F)cc1)c1cc2ccccc2o1 (stereo unspecified),-7.4%,-5.6%,-8.9%,-1.0%,-7.2,-3.4%,-8.9%,-6.6
Cc1c(C(=O)N2CCN(c3ccccc3F)CC2)sc2ncn(CC(=O)N3CCOCC3)c(=O)c12,0.2%[57.1 µM],3.2%,-2.5%,-1.1%,-1.0,-0.2%,-14.6%,6.0
Cc1noc(C)c1CSc1nc2ccccc2c(=O)n1-c1ccccc1,4.4%[57.1 µM],4.3%,-1.0%,-2.0%,-4.7,3.55µM*,-13.6%,5.3
CCN(CC(=O)NC(C)C)Cc1nc2c(Br)cc(Br)cc2c(=O)[nH]1,-5.5%,1.9%,-0.6%,-2.0%,0.3,0.9%,-15.2%,1.0
CCc1cc2c(cc3c(=O)n(CC(=O)NCc4cc(Br)ccc4OC)ncn32)s1,4.7%,18.4%,-4.4%,-2.5%,-1.3,-0.9%,u,2.0
CCOc1cc2[nH]c(=S)n(CCC(=O)NCc3ccco3)c(=O)c2cc1OCC,1.3%[57.1 µM],6.5%,-0.4%,0.7%,2.4,-0.3%,-18.2%,-4.2
CCOc1ccc(Nc2nc3ccccc3c(=O)s2)cc1,-7.4%,-0.4%,2.7%,-6.0%,-8.2,0.0%,-3.7%,-9.2
C#CCn1c(=NC(=O)CSCC(=O)N2CCOCC2)sc2ccccc21,4.5%,13.0%,-13.6%,-1.4%,0.3,-5.1%,-18.8%,-4.1
COCCn1nnnc1C(c1cc2cccc(C)c2[nH]c1=O)N1CCN(c2ccccc2F)CC1 (stereo unspecified),-3.8%[57.1 µM],6.7%,0.5%,-5.4%,10.4,1.5%,-24.2%,-8.0
O=C(NC1CCCC1)c1cc(Nc2cccc(C(F)(F)F)c2)nc2ccccc12,3.9%[57.1 µM],-1.4%,-18.4%,-1.8%,-9.6,2.2%,-21.3%,-4.1
Cc1ccc(C)n1-c1ccc(-c2nnc3n2CCCCC3)s1,2.9%,8.4%,-2.7%,-6.6%,5.2,-5.4%,-24.3%,-12.1
OC[C@H]1O[C@@H](n2cnc3c(NC4CCCC4)ncnc32)[C@H](O)[C@@H]1O,7.6%[57.1 µM],2.6%,0.0%,-2.3%&-2.0%&-3.3%,-13.9,0.4%,-23.1%,4.7&0.1
SMILES,TrxR1 substrate,IDH1 R132H inh,Vif-APOBEC3F blk,Glioma ERSR ind,LDHA block,Vif-APOBEC3G blk,USP1 inh,PI4K2A inh
CCOC(=O)c1sc(NC(=O)c2cccc(S(=O)(=O)N(CC)CC)c2)cc1C,41.5%[57.1 µM],5.0%,-8.8%,-0.7%,-9.5,-1.5%,-17.2%,-0.4
c1ccc(-n2c(SCC3CCCCO3)nnc2-c2cccs2)cc1 (stereo unspecified),28.5%,6.3%,6.5%,-2.8%,-13.8,-10.7%,u,-2.9
O=C(O)c1ccc(NS(=O)(=O)c2ccc3c(c2)OCCO3)cc1,9.7%[57.1 µM],-3.3%,1.0%,-2.9%,-3.6,-1.3%,-13.1%,-3.0
CSc1ccccc1-c1n[nH]c(=S)o1,9.5%[57.1 µM],2.0%,-0.1%,0.4%,1.0,-0.2%,-2.0%,14.1
CCOC(=O)c1cccc(NC(=O)N2CCOCC2)c1,0.0%,-12.1%,-5.6%,-1.3%,-10.3,1.2%,-11.8%,-1.4
Cc1cc(C)cc(N(C(=O)c2ccccn2)C(C(=O)NC2CCCCC2)c2cccs2)c1 (stereo unspecified),0.4%,-6.6%,-2.4%,-3.0%,-4.4,-0.4%,-19.7%,-1.9
Cc1ccc(-n2c(SCC(=O)Nc3c(C)cccc3C)nc(O)c(C)c2=O)cc1,65.5%[activator],-5.9%,-0.4%,-3.7%,-4.9,-8.0%,-0.1%,-1.9
CCOC(=O)/C(=N/O)C1=NC(C)(C)Cc2cc(C)c(C)cc21,2.8%[57.1 µM],-4.5%,13.1%,-2.7%,-5.6,3.8%,-17.8%,-15.3
O=C(O)CC(NC(=O)c1sc2ccccc2c1Cl)c1ccc(OC2CCCC2)cc1 (stereo unspecified),12.1%[57.1 µM],22.8%,0.3%,0.8%,-13.1,6.3%,u,-17.0
CC(C)Oc1ccc(CNC(=O)c2ccc(Cn3c(=O)c4cccn4c4cccnc43)cc2)cc1,44.2%[activator],-3.0%,7.6%,-2.6%,-5.6,-2.1%,-11.2%,3.5
CCCOc1cccc(C2C(C(=O)c3ccc(C)o3)=C(O)C(=O)N2CCN2CCOCC2)c1 (stereo unspecified),-4.6%,-6.6%,0.8%,-6.4%,2.6,-0.7%,-21.6%,-0.3
O=C(Nc1c(C(=O)c2ccccc2)oc2ccccc12)c1ccc(F)cc1,48.6%[activator],-4.2%,-0.7%,-1.2%,-5.1,-0.4%,-27.7%,-1.5
COC(=O)CCC(=O)OC1(C)C(=O)C=C2C=C(C3CC3)N(c3ccccc3)C=C2C1=O (stereo unspecified),-10.8%,13.4%[38.3 µM],-0.8%,-3.6%,17.2,-2.4%,u,-4.3
O=C(COc1ccccc1)NC(=S)Nc1cccc2cc(O)ccc12,-6.0%,8.4%,-0.6%,0.0%,-2.8,-1.8%,-26.3%,3.8
Cc1nc(N2CCN(C(=O)c3ccco3)CC2)c2c3c(sc2n1)CC(C)CC3 (stereo unspecified),-7.3%,-11.8%,7.6%,3.6%,-3.1,-6.2%,-11.6%,4.7
O=S(=O)(Nc1ccc2c(c1)OCCO2)c1ccc2oc3ccccc3c2c1,4.4%[57.1 µM],1.1%,-5.0%,1.3%,-7.6,-8.2%,-23.2%,-4.7
COc1ccc(CN2C(=O)c3cccnc3C2=O)cc1S(=O)(=O)NC(C)C,-6.8%,-9.6%,-5.3%,1.8%,-4.0,-1.6%,-8.4%,4.2
Cc1cccc(N(C(=O)c2csnn2)C(C(=O)NC2CCCCC2)c2ccncc2)c1 (stereo unspecified),3.8%,0.0%,-16.9%,-5.5%,-11.2,2.3%,-7.3%,-1.9
CCC(C)N=CC1=C(O)C(C(=O)OC)C(C)(C)CC1=O (stereo unspecified),-7.1%,7.0%,7.5%,-4.2%,-3.2,-3.7%,-16.1%,3.2
Nc1ccn([C@@H]2O[C@H](CO)[C@@H](O)[C@H]2O)c(=O)n1,6.7%,14.0%,-0.4%,-2.2%&-1.6%,-12.5,2.7%,-24.0%,0.4
CNc1ncnc2c1ncn2[C@@H]1O[C@H](CO)[C@@H](O)[C@@H]1O,x,x,x,1.0%,x,x,x,x
Cc1cccc(CCN2CCC(C(=O)c3ccc(NS(C)(=O)=O)cc3)CC2)n1,x,x,x,-3.9%&-5.2%&-3.9%,x,x,x,x

# Rewritten as tab-separated lines: part of the list above
structure	TrxR1 substrate	IDH1 R132H inh	Vif-APOBEC3F blk	Glioma ERSR ind	LDHA block	Vif-APOBEC3G blk	USP1 inh	PI4K2A inh
Cc1ccc(-n2c(SCC(=O)Nc3c(C)cccc3C)nc(O)c(C)c2=O)cc1	65.5%[activator]	-5.9%	-0.4%	-3.7%	-4.9	-8.0%	-0.1%	-1.9
CCOC(=O)/C(=N/O)C1=NC(C)(C)Cc2cc(C)c(C)cc21	2.8%[57.1 µM]	-4.5%	13.1%	-2.7%	-5.6	3.8%	-17.8%	-15.3

# A portion of the library; the hit share may differ from the screen's.
